Screening results deposited in PubChem by several laboratories.
RanGTP-Imp inh: inhibitors of RanGTP-importin-beta interaction, primary screen, biochemical, FRET, CFP-Ran, YFP-importin-beta, homogeneous | Ran GTPase (GTP-bound) - importin-beta complex | cell-free CFP-Ran/YFP-importin-beta FRET ratio | inhibition, % (no concentration beside the values) | 300,000 tested, 1.1% active | AID 2216, 2009;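 active = most replicates above 15%; inconclusive = exactly half above 15%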;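 also: 0% = DMSO wells and 100% = Ran loaded with GDP instead of GTP; wells of about 40 µL received 100 nL stock; the first replicate is given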
Beta2AR agonist: beta2AR agonists driving receptor internalization, primary screen, cell-based, FAP fluorogen, flow cytometry. response, % (concentration not given with the values). Beta-2 adrenergic receptor (Homo sapiens), P07550. 340,000 tested, 0.43% active. Am2.2-beta2AR cells; reference of the scale not given here;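 active = response above a set limit, near 3 SD of response in nonfluorescent compounds, cut at about 42% in these data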;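 also: stock transfer was 100 nL into about 11 µL; a reference agonist was the positive control; negative values mostly stem from fluorescent compounds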
Target sequence (P07550 whole entry, looked up): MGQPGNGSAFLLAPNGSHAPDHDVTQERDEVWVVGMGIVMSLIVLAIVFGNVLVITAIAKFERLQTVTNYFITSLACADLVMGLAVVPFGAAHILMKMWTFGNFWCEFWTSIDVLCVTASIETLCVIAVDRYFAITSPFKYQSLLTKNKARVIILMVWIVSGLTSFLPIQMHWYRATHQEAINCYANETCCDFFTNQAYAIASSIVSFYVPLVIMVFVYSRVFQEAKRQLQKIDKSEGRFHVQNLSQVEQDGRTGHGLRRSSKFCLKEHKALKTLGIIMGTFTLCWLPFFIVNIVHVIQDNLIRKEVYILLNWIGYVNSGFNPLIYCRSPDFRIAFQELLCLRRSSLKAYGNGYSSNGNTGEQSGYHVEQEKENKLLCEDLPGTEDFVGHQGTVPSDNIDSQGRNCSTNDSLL
LANA-H2B inh: blockers of LANA interaction with H2A/H2B – biochemical, FP readout, HTS, primary screen. Protein LANA1 (Human herpesvirus 8 type P (isolate GK18)), Q9QR71. cell-free LANA-H2A/H2B peptide, fluorescence polarization. inhibition, % (test concentration not listed). 320,000 tested, 0.6% active. AID 2629, 2010; in the data active = inhibition mostly above about 10%, no sharp cut-off; inactive = mostly below about 6.7%;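 also: stock transfer was 7.5 nL into about 10 µL; 0% = median of vehicle wells and 100% = median of positive control wells; one replicate is shown; the record names a cut of 25% in any replicate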
T cruzi inh: inhibitors of intracellular T. cruzi growth, primary screen, luminescence, NIH3T3 host cells; T. cruzi beta-gal in NIH3T3, 90 h; inhibition, % (test concentration not listed); 300,000 tested, 1.4% active; AID 1885, 2009;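 active = mean inhibition across valid replicates above about 55%, limit read from the data; inconclusive = mean below that limit but half or more replicates reach it; inactive = mean below it, under half of replicates reach it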;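 also: signal also drops with host cell toxicity which is not excluded here; 0% = plate median of DMSO wells and 100% = zero luminescence signal; higher percent means less beta-gal luminescence so fewer parasites; stock transfer was 50 nL into about 50 µL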
Beta apoptosis: inhibitors of cytokine-induced beta cell apoptosis, primary screen, luminescence. INS-1E cytokine-induced death, ATP luminescence, 48 h; percent of positive-control rescue, neutral wells zero. protection from apoptosis, % (concentration not given with the values). 300,000 tested, 0.8% active. AID 435005, 2010;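 active = all replicates at 75% or more, or half of them and the mean; inconclusive = half reach 75% but not the mean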;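 also: 0% = cytokine-treated negative control wells and 100% = positive control rescue; higher means more ATP so stronger rescue from cytokine killing; wells of about 40 µL received 100 nL stock; the first replicate is given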
Bfl-1 A1 inh: caspase 3/7 activation in MEF A1-2A-BIM cells, primary screen, A1 inhibitor project, cell-based, luminescence, HTS | Caspase-Glo 3/7 luminescence, 3 h; percent of clofoctol response, vehicle zero | caspase activation, % (concentration not given with the values) | 330,000 tested, 0.066% active | AID 2462, 2010;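 active = over half of replicate activation scores above 10%, or exactly half above 10 with the replicate mean above 10; inconclusive = replicate mean below 10 yet half the replicates above 10; inactive = over half of replicates below 10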;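 also: wells of about 30 µL received 50 nL stock; many hits fall short of the cut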
UCH37 DUB inh: inhibitors of human UCH37 deubiquitinase, primary screen, biochemical, Ub-AMC cleavage, fluorescence | inhibition, % (test concentration not listed) | AID 588478, 2011 | 330,000 tested, 0.33% active | purified proteasome/UCH37 | Ubiquitin carboxyl-terminal hydrolase isozyme L5 (Homo sapiens), Q9Y5K5;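 active = mean of two replicates above 20%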;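 also: 0% = compound-free wells with enzyme and 100% = wells lacking proteasome; stock transfer was 100 nL into about 20 µL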
Target sequence (Q9Y5K5 whole entry, looked up): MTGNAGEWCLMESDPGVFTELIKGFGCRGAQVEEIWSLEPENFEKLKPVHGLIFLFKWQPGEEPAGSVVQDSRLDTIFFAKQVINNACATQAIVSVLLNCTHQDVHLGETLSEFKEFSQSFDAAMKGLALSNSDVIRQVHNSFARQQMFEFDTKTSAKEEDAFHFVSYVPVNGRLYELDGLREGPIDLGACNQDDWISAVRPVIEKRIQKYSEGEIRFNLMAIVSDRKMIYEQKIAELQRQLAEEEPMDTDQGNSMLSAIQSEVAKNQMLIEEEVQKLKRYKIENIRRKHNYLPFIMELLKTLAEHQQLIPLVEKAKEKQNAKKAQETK
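Test system – human UCH37 enzyme supplied as purified proteasome complex · Incubation – 30 min preincubation with enzyme, 25 min cleavage at room temperature · Detection – AMC fluorescence from Ub-AMC cleavage, excitation 355 nm, emission 460 nm · Benchmarks – no-proteasome wells (full inhibition) and compound-free wells (no inhibition)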
Calb FLC: C. albicans growth inhibition with fluconazole, primary screen, CaCi-2 strain, Alamar Blue fluorescence | AID 1979, 2009 | 300,000 tested, 0.57% active | C. albicans CaCi-2 (fluconazole-resistant clinical isolate) + fluconazole, 48 h | growth inhibition, % (no concentration beside the values);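 active = most replicates above 75%; inconclusive = exactly half above 75%; inactive = most below 75%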;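 also: all wells also contain fluconazole at 8 µg/ml as a sub-toxic cotreatment; 0% = median of DMSO wells and 100% = median of geldanamycin control wells; wells of about 8 µL received 7.5 nL stock; the first replicate is given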
Starred values were filed as active, the others as inactive; ? = inconclusive; . = no result given.

SMILES	RanGTP-Imp inh	Beta2AR agonist	LANA-H2B inh	T cruzi inh	Beta apoptosis	Bfl-1 A1 inh	UCH37 DUB inh	Calb FLC
Cc1ccc(NC(=O)c2ccc(OCc3c(C)noc3C)cc2)cc1C	.	6.2	-1.5	.	5.9	0.8	0.8	.
O=C(Nc1cccnc1)c1cc(-c2ccccc2O)on1	-0.3	1.6	-4.6	-11.3	-1.5	-0.7	4.6	-0.5
O=C(NCCn1cccc1)c1cccc2ccccc12	-0.6	11.6	0.3	-16.0	-5.7	0.3	2.5	1.2
CS(=O)(=O)NCCCCNc1ccc(C(F)(F)F)cc1[N+](=O)[O-]	1.1	-7.9	-2.4	15.1	10.2	-0.3	5.2	-2.5
O=C(NCCN1CCN(c2ccccc2)CC1)Nc1ccc(Cl)cc1	1.6	-40.2	-1.6	15.9	-0.3	-0.8	7.2	-14.8
O=C(Nc1ccccc1)c1ccc(-c2ccccc2)s1	1.4	-1.4	-1.8	12.5	-3.0	-5.5	-1.0	-8.8
COC(=O)c1c(NC(=O)CSc2nncs2)sc2c1CCCCC2	-1.2	6.3	-1.7	42.2	15.8	1.5	4.2	-10.0
NC(=O)C1CCN(C(=O)CC(c2ccccc2)c2ccccc2)CC1	2.7	-1.8	4.2	-0.5	.	-0.6	3.0	-2.3
CCOc1ncccc1C(=O)OCc1ccc(C(=O)OC)cc1	0.2	2.6	-5.9	-8.9	1.7	-3.8	1.3	-6.2
OC(c1cc(-c2ccc(C(F)(F)F)cc2)nc(C(F)(F)F)c1)C1CCCCN1 (stereo unspecified)	4.1	30.3	-2.0	56.0*	108.2*	0.1	4.7	14.1
COc1cc(NC(=S)NCCCN2CCOCC2)cc(OC)c1OC	-2.6	-12.9	-4.8	-16.2	0.5	2.1	-0.4	12.5
COc1ccc(/C=C/C(=O)c2c(O)ccc3c(C)cc(=O)oc23)cc1	?	4.9	0.5	-27.7	-2.6	-0.5	-0.6	-13.6
O=C1C=CN2CCOCC2C1 (stereo unspecified)	.	1.8	4.8	.	-6.4	0.5	0.9	.
Cc1cc(OCC(=O)NCCc2c[nH]c3ccccc23)c2c(C)c(C)c(=O)oc2c1	7.1	0.0	-4.8	42.9	10.4	-0.3	0.3	-3.4
Cc1cc(=O)[nH]c(N/N=C/CCc2ccccc2)n1	?	10.4	-1.8	-0.1	-0.3	-0.4	.	-20.6
COc1cccc(C(=O)Nc2ccncc2)c1	?	.	-0.2	2.2	12.4	-0.7	2.1	20.8
CCCCCN(C(=O)NC(=O)NCCCC)S(C)(=O)=O	4.1	-0.4	0.1	-17.8	-3.6	-0.3	1.1	6.0
CC(OC(=O)CNC(=O)c1ccc(Cl)c([N+](=O)[O-])c1)C(=O)NCc1ccco1 (stereo unspecified)	5.9	2.0	-2.1	-3.8	2.7	0.4	5.0	0.8
CC(COS(N)(=O)=O)Cc1ccc(C(F)(F)F)cc1 (stereo unspecified)	1.9	-1.4	-8.1	-2.0	-4.0	2.7	0.7	-7.0
CCn1nc([N+](=O)[O-])c(C(C#N)c2nc3cc(C(F)(F)F)ccc3s2)c(Cl)c1=O (stereo unspecified)	2.6	-12.0	0.7	-15.6	14.4	0.0	10.6	23.8
CC(=O)c1ccc(S(=O)(=O)NCC(=O)N2CCN(C/C=C/c3ccccc3)CC2)cc1	.	-5.7	0.4	.	-0.1	0.2	0.1	.
C/C(=C\c1ccco1)C1C(C#N)=C(N)Oc2n[nH]c(-c3ccccc3)c21 (stereo unspecified)	?	4.6	-5.7	-27.3	-2.6	0.3	4.1	9.4
Cc1ccc(C(=O)c2c[nH]c(C(=O)NCCCN3CCOCC3)c2)cc1	-5.0	-2.8	4.2	-24.4	-0.2	0.4	2.2	-3.8
CCC(CC)NC(=O)C1CC(=O)N(CCc2ccc(F)cc2)C1 (stereo unspecified)	2.3	-1.6	0.6	-22.7	-3.1	0.2	5.9	9.6
O=C(COc1ccccc1Cl)NCCNC(=O)c1ccccn1	-0.8	1.9	3.6	-10.6	-5.5	-0.6	0.1	11.2
Cc1nn(-c2ccc(F)cc2)c(Cl)c1C(=O)N(C)CC(=O)Nc1cccc(F)c1	-1.5	-7.7	-9.9	3.1	1.0	0.6	1.4	8.4
O=C(O)c1ccc(CSc2nnc(-c3ccccc3)n2-c2ccccc2)cc1	0.3	8.8	0.0	4.1	-5.2	1.6	3.0	-1.6
NC(=O)C(c1ccc(Cl)cc1Cl)c1ncc(C(F)(F)F)cc1Cl (stereo unspecified)	-4.7	-4.6	4.2	0.4	1.7	0.4	5.5	2.4
Cc1ccc(/C=C/C(=O)Nc2ccccc2C(N)=O)cc1	0.0	-7.2	-0.3	3.4	2.2	-6.3	-50.2	-4.6
COC(=O)C1=C(C)N(CCCC(=O)O)C(=O)NC1c1cccs1 (stereo unspecified)	-2.6	-1.6	-0.8	2.6	-0.9	0.7	-1.7	-4.2
O=C(CSc1ccc2nnc(-c3ccccn3)n2n1)NCC1CCCO1 (stereo unspecified)	-1.4	-1.1	-0.4	-7.8	-7.3	-0.1	-11.1	2.5
N#C/C(=C\c1cc(Cl)c(OCc2ccc(Cl)cc2)c(Cl)c1)C(N)=O	-0.8	.	6.8	-8.0	-3.0	-0.2	.	-7.7
COc1ccc(CCNC(=O)CSc2n[nH]c(N)n2)cc1OC	-3.7	-0.1	3.5	-8.5	2.1	-0.1	3.4	-11.6
CNC(=S)N1N=C(c2ccc(Br)cc2)CC1c1ccc(OC)cc1 (stereo unspecified)	-0.9	-13.6	-0.4	33.8	-0.4	0.4	5.5	-5.0
COc1ccc(S(=O)(=O)N2CCCCC2)cc1NC(=O)c1cncc(Br)c1	.	-7.7	-1.4	.	1.8	-0.6	3.0	.
Nc1ccc(NC(=O)CCN2CCOCC2)cc1	0.1	5.9	0.0	0.3	3.1	0.3	1.5	-0.8
CCCCN(Cc1ccccc1)S(=O)(=O)c1c(N)n(C)c(=O)n(C)c1=O	?	1.6	-0.6	-31.0	-1.2	1.6	-0.3	2.9
Cc1cc(C)c(C(CC(=O)c2cccs2)C(C#N)C#N)c(C)c1 (stereo unspecified)	3.9	6.7	-6.0	-26.2	1.7	0.5	4.7	-0.5
COc1cc(C2NC(=O)N(C)C(C)=C2C(=O)OCc2ccccc2)cc(Br)c1O (stereo unspecified)	-3.4	7.5	2.7	0.5	-1.8	-0.1	-0.2	-7.5
COc1cc(Cl)c(S(=O)(=O)NCc2ccccn2)cc1Cl	2.1	-0.9	-2.3	-5.9	-13.3	1.7	0.8	-9.7
COc1ccc(N2CCN(C(=S)Nc3ccccc3)CC2)cc1	-2.1	-0.3	3.6	-15.0	-7.7	0.0	5.0	8.2
CC(CNC(=O)c1ccco1)NC(=O)c1ccco1 (stereo unspecified)	2.7	-8.2	0.4	6.6	-4.3	-0.5	1.2	-2.7
COc1ccccc1NC(=O)CSc1nnc(-c2ccoc2C)o1	.	0.1	5.6	.	4.0	0.2	-2.7	.
COC(=O)C(Cc1c[nH]c2ccccc12)NC(=O)c1cccs1 (stereo unspecified)	-1.2	12.4	0.4	-22.6	-1.5	-1.6	6.1	8.0
CCC(C)C(NC(=O)c1ccccc1NC(=O)c1ccc(OC)cc1)C(=O)NCCCn1ccnc1 (stereo unspecified)	6.2	-0.5	4.8	2.5	8.2	0.9	1.8	-2.3
COC(=O)[C@H](C)NC(=O)NCc1ccccc1F	5.0	13.5	0.5	-12.3	-2.7	0.6	-0.3	-5.5
COc1ccc(CN2CCNC(=O)C2CC(=O)NCCCC2CCCC2)c(F)c1 (stereo unspecified)	-0.7	7.0	1.2	16.6	-9.5	0.1	1.2	-15.7
Cc1ccc(NC(=O)CS(=O)CC(=O)Nc2cnc3ccccc3c2)cc1Cl (stereo unspecified)	0.1	5.8	-5.8	-8.9	-6.9	0.0	4.8	-7.8
O=C(CCCOc1ccc(Cl)cc1Cl)Nc1ncccn1	0.5	2.2	0.3	15.2	-0.2	?	-1.6	24.0
COc1ccc(/C=C/C(=O)NC(=S)NCc2ccccc2)cc1OC	-3.0	10.3	-1.8	3.7	-1.7	0.6	-4.5	-0.2
O=C(C1=C[C@@H](c2ccc(C(F)(F)F)cc2)C[C@@H](OCCCCO)O1)N1CCN(Cc2ccc3c(c2)OCO3)CC1	-0.2	3.9	-2.8	35.9	.	0.5	4.8	-9.5
CC(NC(=S)Nc1cccc(F)c1)C(c1cccs1)N1CCOCC1 (stereo unspecified)	-1.8	-0.8	1.5	-11.6	-3.5	-0.8	0.6	25.5
COc1ccc(C(C[N+](=O)[O-])c2c(C)[nH]n(-c3ccccc3)c2=O)cc1 (stereo unspecified)	-1.4	13.1	-2.1	-0.7	-12.4	-1.0	77.1*	-1.2
Cc1cc(/C=C2\SC(=S)N(C)C2=O)c(C)n1-c1ccccc1O	43.8*	-80.5	2.0	27.6	11.5	-3.6	4.0	-6.3
CCn1c(SCC(=O)N2CCN(c3ccc(Cl)cc3)CC2)nc2ccccc2c1=O	-0.1	-2.5	3.6	12.1	-5.8	0.7	1.8	1.4
CCc1cc2cc(C)cc(C)c2nc1Cl	1.6	-3.8	-1.4	-4.7	-5.7	0.6	2.7	12.2
CCOc1ccc(NC(=O)CC2C(=O)NCCN2C(=O)c2ccc(Cl)cc2)cc1 (stereo unspecified)	2.7	-1.3	1.5	0.4	-2.1	2.1	5.8	-2.3
Cc1ccc(NC(=O)COc2cccc(Oc3ccccc3)c2)cc1S(=O)(=O)N1CCOCC1	.	-8.8	2.3	.	-0.1	0.0	0.6	.
COc1ccccc1C(=O)Oc1ccc(N2C(=O)CCC2=O)cc1	6.4	0.3	-0.2	-2.7	3.1	-0.5	1.9	-3.2
CCN(CC(=O)NCc1cccs1)C(=O)CCC(=O)c1ccc(C)cc1	0.1	-3.7	-2.4	?	-8.0	1.0	-2.8	-5.7
(listing goes on)
SMILES	RanGTP-Imp inh	Beta2AR agonist	LANA-H2B inh	T cruzi inh	Beta apoptosis	Bfl-1 A1 inh	UCH37 DUB inh	Calb FLC
CN(C)CCNC(=O)NC1CCCCC1	-1.2	0.2	4.2	-26.3	.	0.3	1.6	-17.7
CCOC(=O)c1sc(NC(=O)CSc2nc(C)cc(C)n2)c(C#N)c1C	20.6*	-5.4	-1.7	4.4	-4.7	0.2	6.4	-2.6
c1ccc(-c2cc3ccccc3[nH]2)cc1	6.8	1.1	0.6	-3.6	4.3	0.7	-0.2	.
COc1cc(CNCc2cccc(OC)c2OC)cc(OC)c1	4.2	-2.1	0.9	19.0	1.0	0.9	0.3	-13.0
